# Screens (PubChem BioAssay)
# Lassa entry: Lassa virus entry inhibition | actives 4.1% (n = 18,000) | Lassa virus pseudotyped entry inhibition, cell-based qHTS; control for the full effect not named in the record; many of its hits are not listed in these tables | AID 720533 | Potency, µM (titrated, usually from 49.2 µM), inactives show at the top dose activity change, negative = inhibition, most hits filed as inhibitors; active = well fitted inhibition curve with a large enough effect; inconclusive = small, poorly fitted or top-dose-only effect; inactive = no such curve, though single readings can be large or run the other way; tested in HEK293 cells; also: luciferase read-out
# Marburg entry: Marburg virus entry inhibition; Potency, µM (titrated, usually from 49.2 µM), for inactives: at the top dose activity change, negative = inhibition, actives largely listed as inhibitors; Marburg virus pseudotype entry/binding inhibition, cell-based; control for the full effect not named in the record; many of its hits are not listed in these tables; actives 6.5% (n = 18,000); active means well fitted inhibition curve with a large enough effect; inconclusive means small, poorly fitted or top-dose-only effect; inactive means no such curve, though single readings can be large or run the other way; tested in HEK293 cells; also: luciferase read-out
# Starred values were filed as active, the others as inactive; ? = inconclusive; . = not tested or not shown; & = joins results of further samples; ! = not confirmed by another sample; [ ] = remark or other dose. % is scaled to controls: 0 for no effect and ±100 for the full control effect; potency is read from the fitted curve at half-maximal effect. Some of the compounds tested; count on the stated rates, not on these rows.
SMILES,Lassa entry,Marburg entry
CN(Cc1ccco1)c1ccnc(-c2ccoc2)n1,-11%,6%
O=c1cc(-c2cccc(O)c2O)oc2ccccc12,-20%,-8%
CC(=O)Oc1ccc(C)cc1,-6%,-12%
CC1=NN=C(c2ccc(N)cc2)c2cc3c(cc2C1)OCO3,6%,7%
COC(=O)C1=C(C)N(Cc2ccccc2)C(=NCCc2ccc(O)cc2)NC1c1ccc(Br)cc1 (stereo not given),-24%[8.59 µM],2%[8.59 µM]
Cl.Cl.Cl.Cl.Cl.Cl.N.N.N.N.NNNNN.NNNNN.O.O.[Ru].[Ru].[Ru],-2%,-22%
COc1ccc(C=CNC(=O)c2ccc(OC)cc2)cc1,3%[8.59 µM],18%[8.59 µM]
COc1ccc2c(c1)O[C@@H]1c3ccc(OC)cc3OCC21 (stereo not given in full),-2%,4%
CC[C@H]1[C@@H]2C[C@H]3[C@@H]4N(C)c5ccccc5[C@]45C[C@@H](C2[C@H]5O)N3[C@@H]1O (stereo not given in full),0%[17.8 µM],5%[17.8 µM]
C=C1CCC[C@]2(C)C[C@H]3OC(=O)[C@H](CNCCc4ccccc4OC)C3CC12 (stereo not given in full),?,?
O=C(COCCOCCOCC(=O)Nc1c(I)cc(I)c(C(=O)O)c1I)Nc1c(I)cc(I)c(C(=O)O)c1I,8%,2%
C=CCN1c2ccccc2[C@]23C[C@@H](C(=O)OC)N(C(=O)c4cccs4)C2=NC(C(=O)OC)=C(C(=O)OC)[C@H]13,-9%[8.59 µM],25%[8.59 µM]
COCc1ccc(CN2Cc3ccccc3OC(c3ccccc3OC)C2)o1 (stereo not given),-17%,-6%
COC1C(O)C(C)O[C@@H](OC2CC[C@@]3(C)C4CC[C@]5(C)C(C6=CC(=O)OC6)CC[C@@]5(O)C4CC[C@@H]3C2)C1O (stereo not given in full),0.1µM*,0.079µM*
O=c1ccc2ccc(OS(=O)(=O)O)cc2o1,?,10%
CNC(=O)[C@@H]1C[C@H](Sc2nc3ccccc3[nH]2)CN1Cc1cccc(C(F)(F)F)c1,-8%,-9%
CC(=O)OC[C@H]1O[C@H](CC=NOC[C@@H](C)[C@H](OCc2ccccc2)C(C)C)C=C[C@@H]1OC(C)=O,-6%[8.59 µM],-10%[8.59 µM]
C=CCN1C(=O)CC[C@@]23C1=NC(C(=O)OC)=C(C(=O)OC)[C@@H]2N(CC#CC)c1ccccc13,-7%[8.59 µM],-20%[8.59 µM]
CC1C(=O)N(Cc2cn(CC3CCCCC3)nn2)CCS(=O)(=O)N1Cc1ccc(-c2ccccc2)cc1 (stereo not given),?,?
NC(C(=O)O)(c1ccc(P(=O)(O)O)cc1)C1CC1 (stereo not given),2%,16%
COC(=O)C1=C(C)N(Cc2ccccc2)C(=NCC(C)C)NC1c1cccc(C(F)(F)F)c1 (stereo not given),.,9%[8.59 µM]
COc1ccc(-c2ccc(-c3cc(=O)oc4cc(OC)c(OC)c(OC)c34)cc2)cc1OC,18µM*,0%
COc1cccc([C@@H]2Oc3ccc(Br)cc3C[C@H]2OC(=O)N[C@H]2CCCc3ccccc32)c1,-4%,-13%
COC(=O)C1=C(C(=O)OC)[C@@H]2N(C)c3ccccc3[C@@]23CCC(=O)N(Cc2cc(OC)c(OC)c(OC)c2)C3=N1,-13%[8.59 µM],-12%[8.59 µM]
N#Cc1cccc(-c2cc(-n3ccnc3)ncn2)c1,0%,-16%

# Two entries from above in a different format:
# Every second line gives: Lassa entry	Marburg entry
- O=c1cc(-c2cccc(O)c2O)oc2ccccc12
→ -20%	-8%
- CC(=O)Oc1ccc(C)cc1
→ -6%	-12%

# New compounds follow:
SMILES,Lassa entry,Marburg entry
CC(C)C1C(=O)N2CCC[C@H]2[C@]2(O)O[C@](NC(=O)[C@@H]3C=C4c5cccc6[nH]cc(c56)C[C@H]4N(C)C3)(C(C)C)C(=O)N12 (stereo not given in full),-7%,?
COC(=O)C(N)CS (stereo not given),-7%,6%
CN(C)CCN(C)CCc1ccc(Cl)c(Cl)c1,-8%&-2%,?
CCC[C@H]1CN(c2ccc(OC)cc2)C(=O)[C@H]1CC(=O)Nc1ccccc1,.,-23%
O=S(=O)(O)c1ccc2c(N=Nc3ccc(S(=O)(=O)O)c4ccccc34)c(O)c(S(=O)(=O)O)cc2c1,-7%,16%
CC(CC(c1ccccc1)c1ccccc1)NC(C)(C)C (stereo not given),?,13µM*
CN(C)CCCCSC(=N)N,-25%&-21%,?
Cc1ccc(CN2CCOc3ccc(CN4CCN(CCO)CC4)cc3C2)s1,-9%,?
OCc1c[nH]c2ccccc12,32µM*!,32µM*!
Clc1ccc2c(c1)C(c1ccccc1)=NCc1nncn1-2,-24%,-6%
O=c1ccc2cc(O)c(O)cc2o1,4%,3%
COC(=O)NCC=Cc1nc(CCCO)co1,-24%[8.59 µM],-24%[8.59 µM]
C/C=C(\C)[C@H](O)C[Si](C)(C)c1ccccc1,-5%,-3%
Nc1cccc2c1CN(C1CCC(=O)NC1=O)C2=O (stereo not given),-6%,-1%
COc1ccc2c3c1OC1C[C@@H](O)C=C[C@@]31CCN(C)C2 (stereo not given in full),-3%,2%
CC(=O)Nc1ccn(C2COC(COC(=O)c3ccccc3)O2)c(=O)n1 (stereo not given),?,?
OC[C@@H]1OC(O)[C@@H](O)[C@H](O)[C@H]1O (stereo not given in full),-15%,14%
O=C(O)c1ccc(-c2c3nc(c(-c4ccc(C(=O)O)cc4)c4ccc([n-]4)c(-c4ccc(C(=O)O)cc4)c4nc(c(-c5ccc(C(=O)O)cc5)c5ccc2[n-]5)C=C4)C=C3)cc1.[Mn+3],0%&-4%,-15%&-18%
C=CCC(C)(O)CCc1ccccc1 (stereo not given),4%,21%
NS(=O)(=O)c1ccc(N=Nc2c(O)[nH]c3ccc(Cl)cc23)cc1,.,?
CN(C)CCN1CCN(C2CN(C3CCCC3)S(=O)(=O)C2)CC1 (stereo not given),16%,?
CC(=O)NCc1cccc(C#Cc2cncnc2Nc2ccc(OCc3cccc(F)c3)c(Cl)c2)c1,.,?
COc1cc(=O)n2c(c1C(=O)N1CCc3ccccc3C1)CCN(Cc1ccc(CO)o1)CC2,3%,10%
CCC1CN(CCNC(=O)c2ccsc2)Cc2cc(OC)ccc2O1 (stereo not given),-14%,-9%
CN1CCC(c2c[nH]c3ccc(O)cc23)CC1,-6%&-11%,-1%&4%

# Laid out differently: 4 of the compounds above
Cc1ccc(CN2CCOc3ccc(CN4CCN(CCO)CC4)cc3C2)s1
- Lassa entry = -9%
- Marburg entry = ?

OCc1c[nH]c2ccccc12
- Lassa entry = 32µM*!
- Marburg entry = 32µM*!

Clc1ccc2c(c1)C(c1ccccc1)=NCc1nncn1-2
- Lassa entry = -24%
- Marburg entry = -6%

O=c1ccc2cc(O)c(O)cc2o1
- Lassa entry = 4%
- Marburg entry = 3%

# The main list resumes, starting six compounds before the break.
SMILES,Lassa entry,Marburg entry
NS(=O)(=O)c1ccc(N=Nc2c(O)[nH]c3ccc(Cl)cc23)cc1,.,?
CN(C)CCN1CCN(C2CN(C3CCCC3)S(=O)(=O)C2)CC1 (stereo not given),16%,?
CC(=O)NCc1cccc(C#Cc2cncnc2Nc2ccc(OCc3cccc(F)c3)c(Cl)c2)c1,.,?
COc1cc(=O)n2c(c1C(=O)N1CCc3ccccc3C1)CCN(Cc1ccc(CO)o1)CC2,3%,10%
CCC1CN(CCNC(=O)c2ccsc2)Cc2cc(OC)ccc2O1 (stereo not given),-14%,-9%
CN1CCC(c2c[nH]c3ccc(O)cc23)CC1,-6%&-11%,-1%&4%
Cc1c(C)c2c(c(C)c1O)CCC(C)(COc1ccc(CC3SC(=O)NC3=O)cc1)O2 (stereo not given),?,17%&16%&-27%&-5%
O=C(NCc1nnc2n1CCN(Cc1cccc(C(F)(F)F)c1)CC2)c1ccncc1,-4%,3%
CN1c2ccccc2[C@@]2(O)C(=O)[C@@]1(C)[C@@H]1CCC=C[C@H]12,26%[8.59 µM],10%[8.59 µM]
Cc1nccn1CC1CCC2C(C1=O)c1ccccc1N2C (stereo not given),-11%,-22%
N[C@H](C(=O)O)C1C(C(=O)O)C1C(=O)O (stereo not given in full),24%,11%
COc1nc(NC(C)C)nc(NC(C)C)n1,-5%,12%
COc1ccc(CN2CCOc3ccc(CN4CCC(O)(c5cccnc5)CC4)cc3C2)c(C)c1C,-8%,?
CCCCC/C=C\C/C=C\C/C=C\CCCCC(=O)O,3%&7%&36%,?
COC(=O)c1ccc(CN2C(=O)[C@]3(OCCC=C[C@@H]3C)c3cc(OC)ccc32)cc1,8%[8.59 µM],-23%[8.59 µM]
Cc1noc(C)c1-c1ccc2ncnc(N(C)Cc3ccco3)c2c1,-6%,6%
Cn1ccc2c(N(Cc3ccccc3)Cc3ccccc3)cc3c(c21)C1CCC3C1 (stereo not given),-16%,-17%
C=CC[C@@](C(C)=O)(C(=O)OC)C(NC(=O)OC(C)(C)C)c1ccccc1 (stereo not given in full),-8%,9%
O=C(CN1CCN(Cc2ccc3c(c2)OCO3)CC1)N1c2ccccc2Sc2ccccc21,?,?
CC(=O)CCC(=O)O,7%,-1%
N[C@]1(C(=O)O)CCc2cc(P(=O)(O)O)ccc21,-14%,-6%
CC[C@@]1(O)C(=O)OCc2c1cc1n(c2=O)-c2cc3ccccc3nc2C1,?,?
COc1cccc2oc(-c3ccc(O)cc3)cc(=O)c12,-8%,4%
CCCCCCCCc1[se]c2ccccc2c1[Se]c1ccccc1,-8%,11%
OCc1ccc(-c2nc(-c3ccc4c(c3)OCO4)c(-c3ccccn3)[nH]2)cc1,-25%,?
Cc1ccc2cc(CNC(C)c3cccc4ccccc34)c(N3CCC(O)CC3)nc2c1 (stereo not given),-5%,?
O=C1OCCN1C(=O)[C@H]1[C@H](c2ccc([N+](=O)[O-])cc2)C(c2ccc(F)cc2)=NN1c1ccccc1,-10%,-28%
CC(=O)N[C@@H](C=O)[C@H](O)[C@H](O)[C@@H](O)CO,-1%&-3%,-8%&24%
COC(=O)N[C@H](CC(C)=O)c1cccs1,17%[8.59 µM],43%[activator][8.59 µM]
O=C(O)COc1ccc(OCCNC[C@@H](O)COc2ccccc2)cc1,-7%,4%
COC(=O)C[C@H]1c2ccccc2C2=C(C[C@@H](C)[C@H]3C(=O)N(c4ccccc4)C(=O)[C@@H]23)N1C(=O)OC,.,-16%&-4%[8.59 µM]
C=CCN1C(=O)[C@]2(OCCC=C[C@H]2C)c2ccccc21,-16%[8.59 µM],-20%[8.59 µM]
c1ccc(N2CCN(CCCOc3ccc4c(c3)OCO4)CC2)cc1,-2%&-3%,2%&-3%
NC(=O)c1ccc[n+]([C@@H]2OC(COP(=O)([O-])OP(=O)(O)OCC3OC(n4cnc5c(N)ncnc54)C(O)C3O)C(O)C2O)c1 (stereo not given in full),17%,6%
C[C@@H]1CN(C2CCC(C#N)(c3ccc(F)cc3)CC2)CC[C@]1(C(=O)O)c1ccccc1 (stereo not given in full),-2%[17.8 µM],-12%[17.8 µM]
COc1cc(/C=C/C(=O)O[C@H]2CC[C@]34C[C@]35CC[C@]3(C)[C@@H]([C@H](C)CCC=C(C)C)CC[C@@]3(C)[C@@H]5CC[C@H]4C2(C)C)ccc1O,25µM*!,1%&-10%
